FGF22 binding: FGF22 (human) thermal shift binding; Q9HCT0; recombinant FGF22 thermal shift, SYPRO orange fluorescence; percent of sucrose octasulfate shift, DMSO zero; calls only at 9.99 µM; actives 1.5% (n = 340,000); AID 651658;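 active = melting point raised past a set limit in the mean and every replicate; three in four hits are not shown here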
Target sequence (Q9HCT0 whole entry, looked up): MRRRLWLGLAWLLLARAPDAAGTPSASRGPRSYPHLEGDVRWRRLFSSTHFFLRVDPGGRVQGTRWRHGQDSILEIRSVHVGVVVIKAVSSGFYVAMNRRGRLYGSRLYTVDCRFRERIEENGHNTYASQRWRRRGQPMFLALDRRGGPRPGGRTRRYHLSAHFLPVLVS
Calls only; i = inactive; + = active, no number. These rows are one share of the data; rates above refer to the full screens.

Preview, two compounds:
SMILES	FGF22 binding
C[C@H]1CN([C@@H](C)CO)C(=O)Cc2cc(NS(=O)(=O)c3cccs3)ccc2O[C@@H]1CN(C)Cc1ccccc1	i
C[C@H]1CN([C@@H](C)CO)C(=O)c2ccccc2-c2ccccc2CO[C@@H]1CN(C)C(=O)C1CC1	i

Results, from the first entry:
SMILES	FGF22 binding
C[C@H]1CN([C@@H](C)CO)C(=O)Cc2cc(NS(=O)(=O)c3cccs3)ccc2O[C@@H]1CN(C)Cc1ccccc1	i
C[C@H]1CN([C@@H](C)CO)C(=O)c2ccccc2-c2ccccc2CO[C@@H]1CN(C)C(=O)C1CC1	i
C[C@@H]1CN([C@H](C)CO)C(=O)Cc2cc(NC(=O)CCN3CCOCC3)ccc2O[C@H]1CN(C)Cc1ccc(C(=O)Nc2ccccc2N)cc1	i
C[C@H](CO)N1C[C@H](C)[C@@H](CN(C)C(=O)Cc2ccccc2)Oc2cc(C#Cc3ccccc3F)ccc2S1(=O)=O	i
CNC[C@H]1OCCCC[C@H](C)Oc2ccc(NS(=O)(=O)c3ccc(C)cc3)cc2C(=O)N([C@@H](C)CO)C[C@@H]1C	i
C[C@H](CO)N1C[C@H](C)[C@H](CN(C)Cc2ccc(Oc3ccccc3)cc2)Oc2ccc(NC(=O)c3ccncc3)cc2C1=O	i
Nc1ccn([C@@H]2O[C@H](C(=O)N[C@H](Cc3ccccc3)C(=O)N3CCN(C(=O)N4CCOCC4)CC3)[C@@H](O)[C@H]2O)c(=O)n1	i
CN(C)CCCNC(=O)C[C@@H]1CC[C@H]2[C@H](COc3ccc(NC(=O)c4ccccc4F)cc3C(=O)N2C)O1	i
COc1ccc(NC(=O)Nc2ccc3c(c2)C(=O)N([C@@H](C)CO)C[C@@H](C)[C@H](CN(C)S(=O)(=O)c2ccc(C)cc2)OCCCC[C@H](C)O3)cc1	i
O=C(c1ccccc1F)N1CC[C@H]2[C@H](CO)Nc3ccc(Br)cc3[C@H]21	i
CC(C)NC(=O)N(C)C[C@@H]1Oc2ncc(C3=CCCCC3)cc2C(=O)N([C@H](C)CO)C[C@H]1C	i
O=C(C[C@H]1C=C[C@H](NC(=O)c2ccc(F)cc2)[C@H](CO)O1)NCCc1ccncc1	i
C[C@H](CO)N1C[C@H](C)[C@@H](CN(C)Cc2ccc(C(=O)Nc3ccccc3N)cc2)Oc2ccc(NS(=O)(=O)c3ccc(F)cc3)cc2C1=O	i
C[C@@H]1CN([C@H](C)CO)C(=O)c2cc(NC(=O)Nc3cccc4ccccc34)ccc2O[C@H]1CN(C)C(=O)NC1CCCCC1	i
C[C@@H]1CN([C@H](C)CO)S(=O)(=O)c2ccc(-c3ccncc3)cc2O[C@H]1CN(C)Cc1cccnc1	i
CCN(C[C@@H]1[C@@H](c2ccccc2)[C@H](CO)N1CC1CCCC1)C(C)=O	i
CCC(=O)N1C[C@@H](O)COC[C@H]2O[C@H](CC(=O)NC)CC[C@@H]21	i
CC(C)NC(=O)Nc1ccc2c(c1)C(=O)N([C@@H](C)CO)C[C@@H](C)[C@@H](CN(C)S(=O)(=O)c1cn(C)cn1)OCCCC[C@@H](C)O2	i
CCCN(C)C[C@H]1Oc2cc(C#Cc3cccnc3)ccc2S(=O)(=O)N([C@@H](C)CO)C[C@H]1C	i
CCCC#Cc1ccc2c(c1)O[C@@H](CN(C)C(=O)c1ccccc1F)[C@H](C)CN([C@H](C)CO)S2(=O)=O	i
C[C@@H]1CN([C@@H](C)CO)C(=O)c2cccc(N(C)C)c2O[C@@H]1CN(C)C(=O)Nc1cccc2ccccc12	i
COc1ccc(CN(C)C[C@@H]2OCCCC[C@@H](C)Oc3ccc(NS(=O)(=O)c4cn(C)cn4)cc3C(=O)N([C@H](C)CO)C[C@H]2C)cc1	i
COc1ccc(CN(C)C[C@H]2OCCCC[C@@H](C)Oc3ccc(NC(=O)Nc4ccccc4)cc3C(=O)N([C@@H](C)CO)C[C@H]2C)cc1	i
C[C@@H]1CN([C@@H](C)CO)C(=O)c2cc(NS(=O)(=O)c3ccc(F)cc3)ccc2O[C@@H](C)CCCCO[C@H]1CN(C)Cc1ccc(C(=O)O)cc1	i
O=C(Cc1cccnc1)N[C@@H]1CC[C@@H](CCn2cc(Cc3ccccc3)nn2)O[C@H]1CO	i
CCCNC(=O)[C@H]1[C@H](CO)[C@H]2Cn3c(ccc(-c4ccccc4F)c3=O)[C@@H]1N2S(C)(=O)=O	i
C[C@@H]1CN([C@H](C)CO)C(=O)c2cc(C#Cc3ccccc3F)cnc2O[C@@H]1CN(C)C(=O)Cc1ccccc1	i
CCC(=O)N1[C@H](CO)[C@@H]2c3ccccc3N(C(=O)c3cnccn3)C[C@@H]21	i
CCN1[C@H](C(=O)N2CCN(C)CC2)[C@@H](CO)[C@@H]2Cn3c(ccc(-c4ccccc4)c3=O)[C@@H]21	i
C[C@@H]1CN([C@H](C)CO)C(=O)c2cc(C#C[C@@H](C)O)cnc2O[C@H]1CN(C)Cc1ccccn1	i
Cc1ccc(S(=O)(=O)N(C)C[C@H]2Oc3ccc(NS(=O)(=O)c4ccc(F)cc4)cc3C(=O)N([C@H](C)CO)C[C@@H]2C)cc1	i
COCC(=O)Nc1ccc2c(c1)OC[C@H](C)N(CC1CC1)C[C@@H](C)[C@H](OC)CN(C)C2=O	i
CCNC(=O)Nc1ccc2c(c1)C(=O)N(C)[C@H]1CC[C@H](CC(=O)Nc3ccccc3)O[C@@H]1CO2	i
C[C@H]1CN([C@@H](C)CO)C(=O)c2cc(C#Cc3ccccc3F)cnc2O[C@H]1CN(C)S(=O)(=O)c1ccccc1	+
Cc1ccc(S(=O)(=O)N[C@@H]2CC[C@@H](CCNC(=O)C3CCCCC3)O[C@@H]2CO)cc1	i
C[C@H]1CN([C@@H](C)CO)C(=O)c2cc(-c3cccnc3)cnc2O[C@H]1CN(C)Cc1ccc(-c2ccccc2)cc1	i
O=C(Nc1ccc(Cl)c(Cl)c1)N[C@H]1CC[C@H](CCNC(=O)c2ccc(F)cc2)O[C@@H]1CO	i
C[C@H](CO)N1C[C@H](C)[C@@H](CN(C)Cc2cccc(C(=O)Nc3ccccc3N)c2)OCc2ccccc2-c2c(n(C)c3ccccc23)C1=O	i
CCS(=O)(=O)N1CCC2(CC1)CN(S(=O)(=O)c1cccc(OC)c1)[C@H](CO)c1[nH]c3cc(OC)ccc3c12	i
C/C=C/c1ccc([C@H]2[C@H](CO)N3CCCCN(C(=O)Nc4ccc(F)cc4)C[C@@H]23)cc1	i
C[C@H](NC(=O)C[C@@H]1C[C@@H]2c3cc(NC(=O)C4CCOCC4)ccc3O[C@@H]2[C@H](CO)O1)c1ccccc1	i
CCCN1C[C@@H](C)[C@@H](OC)CN(C)C(=O)c2cc(NC(=O)NC3CCCC3)ccc2OC[C@@H]1C	i
O=C(Nc1ccccc1F)N1C[C@H]2[C@@H](c3ccccc31)[C@@H](CO)N2C(=O)c1ccccn1	i
CC(C)NC(=O)N[C@H]1C=C[C@@H](CC(=O)NCCN2CCCC2)O[C@H]1CO	i
C[C@@H]1CN([C@@H](C)CO)C(=O)c2cccc(NC(=O)C3CC3)c2O[C@@H]1CN(C)S(=O)(=O)c1cn(C)cn1	i
CC(=O)N1[C@H](CO)[C@@H](c2ccccc2)[C@H]1CNC(=O)CN1CCOCC1	i
CN1C(=O)c2cc(NC(=O)c3ccc(C(F)(F)F)cc3)ccc2OC[C@H]2O[C@@H](CC(=O)NC3Cc4ccccc4C3)CC[C@H]21	i
COc1ccccc1NC(=O)N1C[C@@H](C)[C@H](OC)CN(C)C(=O)c2ccc(NC(=O)c3cc(C)on3)cc2OC[C@H]1C	i
C[C@@H]1CN([C@@H](C)CO)C(=O)Cc2cc(NC(=O)Cc3cn(C)c4ccccc34)ccc2O[C@@H]1CN(C)Cc1ccc(C(F)(F)F)cc1	i
C[C@@H]1CN([C@@H](C)CO)C(=O)c2cc(NC(=O)CCC(F)(F)F)ccc2O[C@@H](C)CCCCO[C@@H]1CN(C)C(=O)CCC(F)(F)F	i
COc1cccc(NC(=O)N(C)C[C@@H]2OCc3ccccc3-c3c(n(C)c4ccccc34)C(=O)N([C@H](C)CO)C[C@H]2C)c1	i
Cc1ccc(S(=O)(=O)N(C)C[C@@H]2Oc3ccc(NC(=O)C4CC4)cc3C(=O)N([C@@H](C)CO)C[C@H]2C)cc1	i
C[C@@H]1CN([C@H](C)CO)C(=O)c2cc(NS(=O)(=O)c3ccccc3)ccc2O[C@@H](C)CCCCO[C@@H]1CN(C)S(=O)(=O)c1ccccc1	i
COc1ccc(CN(C)C[C@H]2OCCCC[C@H](C)Oc3ccc(NC(=O)Nc4ccccc4)cc3C(=O)N([C@H](C)CO)C[C@@H]2C)cc1	i
COc1ccc(S(=O)(=O)N(C)C[C@@H]2Oc3c(NC(=O)c4ccncc4)cccc3C(=O)N([C@@H](C)CO)C[C@@H]2C)cc1	i
O=C(C[C@H]1CC[C@H]2[C@@H](COC[C@H](O)CN2C(=O)c2ccccc2F)O1)NCc1ccccc1	i
O=C(C[C@H]1C=C[C@@H](NS(=O)(=O)c2ccc(F)cc2)[C@H](CO)O1)N1CCN(c2ccccc2)CC1	i
CCC(=O)Nc1ccc2c(c1)C(=O)N(C)[C@@H]1CC[C@H](CC(=O)O)O[C@@H]1CO2	i
COc1cccc(NC(=O)N[C@H]2C=C[C@H](CC(=O)NCc3ccncn3)O[C@@H]2CO)c1	i
CO[C@H]1CN(C)C(=O)c2ccc(NS(C)(=O)=O)cc2OC[C@H](C)N(CC2CC2)C[C@@H]1C	i

Six entries from above, sorted by SMILES length, lowest first:
SMILES	FGF22 binding
CC(=O)N1[C@H](CO)[C@@H](c2ccccc2)[C@H]1CNC(=O)CN1CCOCC1	i
O=C(C[C@H]1C=C[C@@H](NS(=O)(=O)c2ccc(F)cc2)[C@H](CO)O1)N1CCN(c2ccccc2)CC1	i
COc1ccccc1NC(=O)N1C[C@@H](C)[C@H](OC)CN(C)C(=O)c2ccc(NC(=O)c3cc(C)on3)cc2OC[C@H]1C	i
COc1cccc(NC(=O)N(C)C[C@@H]2OCc3ccccc3-c3c(n(C)c4ccccc34)C(=O)N([C@H](C)CO)C[C@H]2C)c1	i
CN1C(=O)c2cc(NC(=O)c3ccc(C(F)(F)F)cc3)ccc2OC[C@H]2O[C@@H](CC(=O)NC3Cc4ccccc4C3)CC[C@H]21	i
COc1ccc(CN(C)C[C@H]2OCCCC[C@H](C)Oc3ccc(NC(=O)Nc4ccccc4)cc3C(=O)N([C@H](C)CO)C[C@@H]2C)cc1	i

Next part.
SMILES	FGF22 binding
CN(C)CC(=O)N[C@H]1CC[C@@H](CC(=O)NCc2ccccc2F)O[C@@H]1CO	i
Cc1ccccc1S(=O)(=O)N1CC[C@@H]2[C@@H](CO)Nc3ccc(-c4ccccc4)cc3[C@@H]21	i
O=C(NC1CCCC1)N1CCCCN2[C@H](CO)[C@@H](c3ccc(-c4cccnc4)cc3)[C@@H]2C1	i
CNC[C@@H]1Oc2cc(C#CC(C)(C)O)ccc2S(=O)(=O)N([C@H](C)CO)C[C@H]1C	i
CC(C)C(=O)Nc1ccc2c(c1)C(=O)N(C)[C@@H]1CC[C@@H](CC(=O)Nc3ccccc3)O[C@H]1CO2	i
Cc1noc(C)c1NC(=O)Nc1ccc2c(c1)C(=O)N([C@H](C)CO)C[C@H](C)[C@@H](CN(C)C(=O)NC(C)C)OCCCC[C@H](C)O2	i
CCC(=O)N1C[C@H](O)COC[C@H]2O[C@H](CC(=O)NCc3ccccc3Cl)CC[C@@H]21	i
O=C(C1CCOCC1)N1C[C@@H]2[C@H](c3ccccc31)[C@@H](CO)N2C(=O)Cc1ccccc1	i
CC(C)NC(=O)Nc1ccc2c(c1)C(=O)N([C@@H](C)CO)C[C@@H](C)[C@H](CN(C)C(=O)Nc1cccc3ccccc13)O2	i
COC(=O)[C@H]1[C@H](CO)[C@H]2Cn3c(ccc(-c4ccccc4)c3=O)[C@H]2N1CCc1ccccc1	i
COc1cccc(NC(=O)N(C)C[C@@H]2Oc3ncc(C4=CCCCC4)cc3C(=O)N([C@@H](C)CO)C[C@H]2C)c1	i
Cc1noc(C)c1S(=O)(=O)Nc1ccc2c(c1)C(=O)N([C@H](C)CO)C[C@@H](C)[C@@H](CN(C)Cc1ccccc1)O2	i
C[C@@H]1CN([C@H](C)CO)S(=O)(=O)c2ccc(C#CCC3CCCC3)cc2O[C@H]1CN(C)Cc1ccc(C(=O)O)cc1	i
CO[C@@H]1CN(C)C(=O)c2cc(NS(C)(=O)=O)ccc2OC[C@@H](C)N(C(=O)C2CCC2)C[C@@H]1C	i
CC(=O)Nc1ccc2c(c1)C(=O)N(C)[C@H]1CC[C@H](CC(=O)NCC3CCCCC3)O[C@@H]1CO2	i
C[C@@H]1CN([C@H](C)CO)S(=O)(=O)c2ccc(C#CC3CCCCC3)cc2O[C@H]1CN(C)Cc1cccnc1	i
Cc1ccc(S(=O)(=O)Nc2ccc3c(c2)CC(=O)N([C@@H](C)CO)C[C@H](C)[C@@H](CN(C)S(=O)(=O)c2cccs2)O3)cc1	i
COc1ccccc1C#Cc1ccc2c(c1)O[C@@H](CN(C)Cc1ccccc1)[C@H](C)CN([C@H](C)CO)S2(=O)=O	i
COC(=O)C[C@H]1CC[C@H]2[C@@H](COc3ccc(NC(=O)Nc4cc(C)cc(C)c4)cc3C(=O)N2C)O1	i
CO[C@@H]1CN(C)C(=O)c2cc(NC(C)=O)ccc2OC[C@H](C)NC[C@@H]1C	i
C[C@H](CO)N1C[C@H](C)[C@H](CN(C)Cc2ccc(C(=O)O)cc2)Oc2ccc(NC(=O)C3CCCCC3)cc2CC1=O	i
COc1ccc(-c2ccc3c(c2)O[C@@H](CN(C)C)[C@@H](C)CN([C@@H](C)CO)S3(=O)=O)cc1	i
C/C=C/c1ccc([C@@H]2[C@@H](CO)N(Cc3ccccn3)[C@H]2CNC(C)=O)cc1	i
C[C@@H]1CCCCO[C@H](CN(C)C(=O)Nc2ccc3c(c2)OCO3)[C@H](C)CN([C@H](C)CO)C(=O)c2cc(NS(=O)(=O)c3cn(C)cn3)ccc2O1	i

Assay outcomes deposited in PubChem BioAssay by Broad Institute.
